Screening results: PubChem BioAssay, National Center for Advancing Translational Sciences (NCATS)
2A StopGo: High Throughput Screening for Foot and Mouth Disease Virus Antivirals. human cells with a luciferase reporter of 2A StopGo recoding; control for the full effect not named in the record. Potency, µM (titrated, usually from 57.9 µM), for inactives: at the top dose signal change, negative = less light. 410,000 compounds, 1.2% hits. AID 1159524, 2015; active = well fitted falling curve with a large enough effect; inconclusive = small, poorly fitted or top-dose-only effect; inactive = no such curve, though single readings can be large or run the other way; tested in HEK293T cells; also: % is scaled to controls: 0 for no effect and ±100 for the full control effect; nearly all actives have a fitted effect of over 45% in size; luciferase light after 4 h
SARS PLpro yeast: qHTS of Yeast-based Assay for SARS-CoV PLP; 330,000 compounds, 0.19% hits; Potency, µM (top dose mostly 32.9 µM), without a hit: at the top dose activity, positive = growth rescue; S. cerevisiae expressing SARS-CoV PLpro, growth rescue; control for the full effect not named in the record; also: 0% is about no effect; nearly all actives have a fitted effect of over 55% in size; growth read by luminescence after 48 h
RE007 growth inh: qHTS Assay for Inhibitors of the HIV-1 protein Vpr; AID 651644, 2012; Potency, µM (highest dose often 92.2 µM), for inactives: top-dose activity change, negative = less growth; 360,000 compounds, 0.21% hits; S. pombe RE007 Vpr strain, BacTiter-Glo ATP luminescence, 24 h; control for the full effect not named in the record; active = well fitted falling curve with a large enough effect; inconclusive = small, poorly fitted or top-dose-only effect; inactive = no such curve, though single readings can be large or run the other way;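 also: % is scaled to controls: 0 for no effect and ±100 for the full control effect; nearly all actives have a fitted effect of over 50% in size; the assay follows cell death caused by Vpr and the record does not say whether a fall means rescue or toxicity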
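Fission yeast RE007 carrying one integrated HIV-1 vpr copy, seeded at OD 0.01 in PMG+AL medium with 23 nL pinned compound. Grown 24 h at 30 degrees; viability read by BacTiter-Glo luminescence after 5 min.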
Lassa entry inh: qHTS for Inhibitors of binding or entry into cells for Lassa Virus; AID 540256, 2011; 300,000 compounds, 1.2% hits; Lassa virus pseudotype entry inhibition, cell reporter; control for the full effect not named in the record; Potency, µM (top dose mostly 37.9 µM), for the others: at the highest dose activity change, negative = inhibition, usual class: inhibitors; active means well fitted inhibition curve with a large enough effect; inconclusive means small, poorly fitted or top-dose-only effect, or effect the other way; inactive means flat fitted curve, though single readings scatter; tested in HEK293 cells; also: % is scaled to controls: 0 for no effect and ±100 for the full control effect; nearly all actives have a fitted effect of over 50% in size; luciferase read-out
Marburg entry inh: qHTS for inhibitors of binding or entry into cells for Marburg Virus. Marburg virus pseudotyped entry inhibition, cell reporter; control for the full effect not named in the record; about a third of the inactives were read at about 46 µM. Potency, µM (series often up to 37.8 µM), without a hit: at the highest dose activity change, negative = inhibition, actives largely listed as inhibitors. 300,000 compounds, 1.8% hits. AID 540276, 2011; active = well fitted inhibition curve with a large enough effect; inconclusive = small, poorly fitted or top-dose-only effect, or effect the other way; inactive = flat fitted curve, though single readings scatter; tested in HEK293 cells; about a fifth of its hits are not listed in these tables; also: % is scaled to controls: 0 for no effect and ±100 for the full control effect; luciferase read-out
Cruzain noTriton: qHTS Assay for Promiscuous and Specific Inhibitors of Cruzain (without detergent) | purified cruzain, Z-FR-AMC fluorescence, no detergent | AID 1476, 2009 | Potency, µM, for the others: max response, negative = inhibition, hits mostly inhibitors | 200,000 compounds, 2.3% hits | Cruzipain (Trypanosoma cruzi), P25779; active = well fitted curve in the direction sought with a large enough effect; inconclusive = small, poorly fitted or top-dose-only effect, or another doubt; inactive = no such curve, though single readings can be large; an effect the other way counts as inactive or inconclusive;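 also: plate controls were enzyme without inhibitor for no effect and buffer without enzyme for full effect; nearly all actives have a fitted effect of over 40% in size; top concentration of the series not given in the record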
Target sequence (P25779 123-467 limits assumed): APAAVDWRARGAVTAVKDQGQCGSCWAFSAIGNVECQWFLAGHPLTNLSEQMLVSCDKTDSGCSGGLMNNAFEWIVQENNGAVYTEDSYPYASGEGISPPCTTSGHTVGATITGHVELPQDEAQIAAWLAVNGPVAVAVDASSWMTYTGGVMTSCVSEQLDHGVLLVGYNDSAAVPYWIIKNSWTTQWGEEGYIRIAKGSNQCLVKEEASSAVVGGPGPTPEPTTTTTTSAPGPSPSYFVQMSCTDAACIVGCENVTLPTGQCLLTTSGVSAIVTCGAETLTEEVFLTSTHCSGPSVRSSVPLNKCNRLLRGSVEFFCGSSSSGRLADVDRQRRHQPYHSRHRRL
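Detergent-free condition (0.00005% Triton X-100) in acetate buffer pH 5.5 with DTT. 1.5 nM enzyme and compound were pre-mixed 15 min, then 2 uM Z-FR-AMC substrate added; reaction progress from fluorescence change between first and third reads (60 s).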
Cruzain Triton: qHTS Assay for Promiscuous and Specific Inhibitors of Cruzain (with detergent); Cruzipain (Trypanosoma cruzi), P25779; purified cruzain, Z-FR-AMC fluorescence, 0.01% Triton; Potency, µM, for the others: max response, negative = inhibition, actives largely listed as inhibitors; 200,000 compounds, 0.43% hits; AID 1478, 2009; active = well fitted curve in the direction sought with a large enough effect; inconclusive = small, poorly fitted or top-dose-only effect, or another doubt; inactive = no such curve, though single readings can be large; an effect the other way counts as inactive or inconclusive;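 also: plate controls were neutral wells for no effect and buffer without enzyme for full effect; nearly all actives have a fitted effect of over 40% in size; top concentration of the series not given in the record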
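Read-out: AMC fluorescence (360 nm excitation, 450 nm emission), four reads over 2 min, first-to-third difference used. Conditions: cruzain 1.5 nM, Z-FR-AMC 2 uM, pH 5.5 acetate, 5 mM DTT, 0.01% Triton X-100.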
NS1 inh: qHTS Assay for Inhibitors of Influenza NS1 Protein Function. 270,000 compounds, 0.4% hits. Potency, µM (top dose mostly 46.1 µM), for the others: at the highest dose activity, positive = more growth. AID 2326, 2010. S. cerevisiae slowed by influenza A NS1, growth recovery by OD600; also: actives are rising curves; nearly all actives have a fitted effect of over 50% in size
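Compounds were scored for reversing the slow growth caused by influenza A NS1 in S. cerevisiae, measured by optical density at 600 nm. Assay medium contained 2% galactose at pH 6.0; NS1-free yeast of the same strain were the positive control.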
Active calls of the source: *; ? = inconclusive; · = not tested or not shown; & = joins results of further samples; [ ] = dose if it differs, or a comment. Unless noted, calls follow the shape of the dose curve; as a rule, active means well fitted rising curve with a large enough effect; inconclusive means small, poorly fitted or top-dose-only effect; inactive means no such curve, though single readings can be large or run the other way. Potency is read from the fitted curve at half-maximal effect.

Screens in order: 2A StopGo	SARS PLpro yeast	RE007 growth inh	Lassa entry inh	Marburg entry inh	Cruzain noTriton	Cruzain Triton	NS1 inh
1) Cc1nn(CC(=O)NCC2CCCO2)c(=O)c2cc3ccccc3n12 (stereo not given)
→ 2.5%	2.1%	-0.2%	·	·	·	·	0.0%
2) CCCCC(=O)Nc1nnc(S(=O)(=O)N2CCCCCC2)s1
→ 4.2%&-6.0%	1.4%	4.0%	2.3%[46.1 µM]	·	0.9%	-5.7%	-7.8%
3) C=CCC(C(=O)OC)(C(=O)OC)c1ccc([N+](=O)[O-])cn1
→ -11.8%	1.9%	17.5%	-2.4%	?	-7.9%	2.3%	-3.7%
4) CCCn1c(/N=C/c2c[nH]c3ccccc23)nc2ccccc21
→ ·	-6.0%	-3.6%	2.0%	-7.0%	5.7%	-14.6%	-13.0%
5) Cc1ccccc1C(=O)N1c2ncnn2C2(CCCCC2)[C@@H]2CCCC[C@@H]21
→ ?	·	·	-9.9%[46.1 µM]	1.2%[46.1 µM]	-6.4%	-2.2%	·
6) Cc1c(C(=O)O)sc2[nH]c(=O)n(Cc3ccccc3)c(=O)c12
→ 2.9%	1.9%	11.5%	9.4%[46.1 µM]	3.7%[46.1 µM]	·	·	0.6%
7) CCSc1nc(N)c2c3c(sc2n1)CCC3
→ 22.5%	5.1%	-25.5%	7.5%	16.6%	?	1.8%	-1.7%
8) COc1cc(NC(=O)/C=C/c2ccccc2)c(C(=O)O)cc1OC
→ 24.1%	0.4%	2.6%	·	·	·	·	-0.7%
9) Cc1cccc(-c2cc3c(nn2)-c2ccccc2C3=O)c1
→ ?	-8.2%	?	?	?	-11.0%	-2.9%	-62.7%
10) COCCN(C(=O)CCC(=O)Nc1cc(C)on1)C(C(=O)NC(C)(C)C)c1cccc(OC)c1OC (stereo not given)
→ 1.5%	-1.4%	-4.1%	4.8%	-28.3%[46.1 µM]	·	·	-5.8%
11) CCOc1cc(/C=N/NC(=O)NN(C)c2ncc(C(F)(F)F)cc2Cl)ccc1O
→ ?	2.5%	-0.9%	?	?	·	·	-6.2%
12) COc1cc(/C=N/n2c(=S)[nH]nc(C)c2=O)cc([N+](=O)[O-])c1O
→ 3.5%	-0.1%	-5.9%	24.3%[46.1 µM]	19.2%[46.1 µM]	·	·	10.7%
13) CCN(Cc1cc2cc(OC)ccc2[nH]c1=O)C(=O)c1ccncc1
→ -18.3%	0.6%	-5.5%	7.2%	-5.8%	-1.6%	-1.2%	-3.0%
14) Cc1noc(C)c1C(=O)NCCCN1CCCC1=O
→ 13.7%	-0.2%	3.6%	8.4%	1.6%	-1.4%	3.0%	-2.9%
15) CC(c1ccc(F)cc1)n1cc(C(=O)NCc2ccc3c(c2)OCO3)nn1 (stereo not given)
→ 5.5%	1.5%	0.0%	3.7%	7.8%	-12.6%	1.7%	-2.1%
16) CCc1ccc(N=C2N=C(N)c3ccccc32)cc1
→ ?	0.6%	-10.8%	13.4%	?	2.4%	0.1%	-66.6%
17) COc1ccc(OC)c(N(C)S(=O)(=O)c2ccc3c(c2)NC(=O)CC(=O)N3)c1
→ -10.9%	·	·	-0.2%[46.1 µM]	14.5%[46.1 µM]	-1.3%	-1.2%	·
18) NC(=O)c1cc(S(=O)(=O)N2CCCC2)ccc1OCc1ccc(F)cc1
→ -11.9%	2.0%	3.7%	7.7%[46.1 µM]	3.8%[46.1 µM]	·	·	6.5%
19) CC(C)CN(C(=O)c1ccc(Br)o1)C1CCS(=O)(=O)C1 (stereo not given)
→ -5.8%	0.9%	3.9%	5.7%	-3.8%	·	·	·
20) CC(C)(C)OC(=O)[C@H](Cc1ccccc1)NC(=O)c1nc[nH]c1C(=O)NCC(=O)OCc1ccccc1
→ -10.0%	4.1%	-1.5%	·	·	·	·	11.2µM*
21) N#Cc1c(Cl)nc2c(c1C#N)CCCC2
→ -23.1%	-1.3%	2.7%	8.6%	15.7%	·	·	-1.8%
22) CC(=O)N1CCC(N(CCN2CCOCC2)C(=S)Nc2ccccc2C)CC1
→ -11.1%	2.1%	-3.0%	4.9%	-1.0%	6.3%	1.8%	-2.7%
23) Cc1cc(NC(=O)CSc2ncn[nH]2)no1
→ -8.7%	0.6%	?	·	·	·	·	3.2%
24) O=C(c1ccccc1F)N1C(=O)c2cccc3cccc1c23
→ -16.3%	-2.6%	-19.9%	·	·	·	·	4.6%
25) N#C/C(C(N)=O)=C1/SC=C(c2ccccc2)N1c1ccccc1
→ ?	-1.2%	14.3%	?	-13.5%	·	·	5.9%
26) C(=N\N(c1ccccc1)c1ccccc1)/c1ccc2c(c1)OCO2
→ -15.3%	-13.6%	-3.3%	8.6%	-20.7%	?	-2.4%	9.3%
27) Cc1ccc(C)c(NS(=O)(=O)c2ccc3oc(=O)ccc3c2)c1
→ 3.5%	0.6%	-2.7%	·	·	·	·	4.3%
28) N#CCSc1nc(-c2ccccc2)cs1
→ 22.8%	-5.7%	-18.0%	14.9%	2.2%	-4.5%	0.7%	-17.2%
29) CS(=O)(=O)c1nc([N+](=O)[O-])nn1CCCc1ccccc1
→ 17.8µM*	·	7.6%	5.1%	?	·	·	·
30) Cc1cc(C)cc(NC(=O)CSc2nc(=O)n(CCN3CCOCC3)c3c2CCC3)c1
→ -8.9%	·	·	?	·	-7.7%	2.0%	·
31) COc1ccc(OC)c2c(N3CCN(C)CC3)cc(C(F)(F)F)nc12
→ -22.4%	12.4%	-13.9%	-0.9%	9.3%[46.1 µM]	-1.4%	-5.4%	-3.8%
32) Cc1ccc(N2C(=O)N(CC(=O)Nc3ccccc3C)C(=O)C2C)cc1 (stereo not given)
→ 14.4%	-5.7%	10.9%	0.0%	4.8%	·	·	0.2%
33) COc1ccc(OC)c2sc(N3CCN(C(=O)c4ccc5ncsc5c4)CC3)nc12
→ ?	4.6%	7.6%	?	?	·	·	·
34) COC(=O)N1C(=O)[C@](CC(C)C)(c2ccccc2)N1C(=O)OC
→ 35.5µM*	-6.9%	1.5%	·	·	·	·	-14.5%
35) O=C(CCS(=O)(=O)c1ccc(Br)cc1)Nc1ccc(Cl)c(C(F)(F)F)c1
→ -13.7%	·	·	-19.5%[46.1 µM]	·	-16.9%	-12.2%	·
36) COc1ccccc1N1CCN(C(=O)COc2ccc(S(=O)(=O)NC(C)C)cc2)CC1
→ 0.4%	0.4%	-17.4%	-16.5%[46.1 µM]	-2.1%[46.1 µM]	·	·	-9.5%
37) Cc1cc(F)ccc1NCC(=O)Nc1ccc(Br)cc1C
→ 4.7%	-43.6%	-5.5%	0.2%	-19.9%	-11.8%	-9.6%	-20.3%
38) O=C(C1CCCO1)N1CCN(S(=O)(=O)c2cc(C(F)(F)F)ccc2Cl)CC1 (stereo not given)
→ -2.2%	4.2%	0.5%	2.1%	14.7%	·	·	·
39) Cc1nn(CC(=O)NCc2ccccc2Cl)c(C)c1[N+](=O)[O-]
→ ·	4.5%	4.4%	19.1%	3.8%	-3.8%	1.0%	0.9%
40) Cc1c(NC(=O)c2cc(-c3ccc(Cl)c(Cl)c3)on2)c(=O)n(-c2ccccc2)n1C
→ -13.5%&-16.1%	2.9%	31.9%	-6.3%	-1.1%&4.4%[46.1 µM]	-5.7%	-4.8%	12.4%
41) Cc1cccc(C(=O)Nc2scc(CC(C)C)c2C(=O)O)c1
→ 7.4%	-18.3%	3.6%	?	?	-16.8%	-9.7%	-27.5%
42) CC(C)OCCCNC(=O)C1CCN(S(=O)(=O)c2ccc3nc4c(c(C(=O)O)c3c2)CCCCC4)CC1
→ 2.1%	22.0%	26.5%	·	·	·	·	4.3%
43) O=C(c1cccc(F)c1)N1CCCC(C(=O)N2CCCC2)C1 (stereo not given)
→ 16.5%	-4.5%	-3.5%	-11.3%	8.6%	-7.6%	7.5%	-1.9%
44) Cc1cc(=O)[nH]c(SCC(=O)NCCC2=CCCCC2)n1
→ -18.9%	1.2%	34.1%	0.1%[46.1 µM]	1.5%[46.1 µM]	·	·	·
45) Cc1ccc(NC(=O)CN(C)Cc2cc(=O)n3ccsc3n2)cc1
→ 7.7%	-0.8%	8.8%	2.0%[46.1 µM]	27.4%[46.1 µM]	·	·	2.1%
46) CN1CCN(C(=S)c2ccc(Br)cc2)CC1
→ -4.2%	25.8%	-11.1%	9.2%	-1.7%[46.1 µM]	-3.4%	-1.1%	11.1%
47) COc1ccc(C(=O)Nn2c(SCC(=O)NCc3ccco3)nc3ccccc3c2=O)cc1
→ 14.1µM*	-2.9%	0.4%	1µM*	0.398µM*	-4.0%	-3.9%	-23.4%
48) COc1cc(/C=C2/C(=O)NN(c3ccc(Cl)c(Cl)c3)C2=O)cc([N+](=O)[O-])c1O
→ -1.0%	1.4%	-8.0%	·	·	·	·	5.3%
49) COc1cccc(/C=N/NC(=S)Nc2cccnc2)c1
→ -12.8%	-0.2%	11.8%	7.0%[46.1 µM]	?	·	·	1.9%
50) Cc1cc(=O)[nH]c(SCC(=O)N2CC3(C)CC2CC(C)(C)C3)n1 (stereo not given)
→ 26.0%	0.6%	12.0%	6.7%[46.1 µM]	3.6%[46.1 µM]	·	·	·

An unsorted share of the library; overall some 4.8% were active at least once.
